Screening data: PubChem, National Center for Advancing Translational Sciences (NCATS)
MARV entry inh – blocks Marburg virus binding to or entry into cells. actives 1.8% (n = 300,000). AID 540276. Potency, µM (top dose mostly 37.8 µM), inactives show at the top dose activity change, negative = inhibition, usual class: inhibitors. Marburg virus pseudotyped entry inhibition, cell reporter; control for the full effect not named in the record; about a third of the inactives were read at about 46 µM; active = well fitted inhibition curve with a large enough effect; inconclusive = small, poorly fitted or top-dose-only effect, or effect the other way; inactive = flat fitted curve, though single readings scatter; tested in HEK293 cells; about a fifth of its hits are not listed in these tables; further: on the % scale 0 is the no-effect control and ±100 the full control effect; luciferase read-out
Cruzain inh noDet – blocks cruzain activity in detergent-free assay. actives 2.3% (n = 200,000). purified cruzain, Z-FR-AMC fluorescence, no detergent. Potency, µM, inactives show max response, negative = inhibition, hits mostly inhibitors;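 further: plate controls were enzyme without inhibitor for no effect and buffer without enzyme for full effect; nearly all actives have a fitted effect of over 40% in size; top concentration of the series not given in the record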
Target sequence (P25779 123-467 limits assumed): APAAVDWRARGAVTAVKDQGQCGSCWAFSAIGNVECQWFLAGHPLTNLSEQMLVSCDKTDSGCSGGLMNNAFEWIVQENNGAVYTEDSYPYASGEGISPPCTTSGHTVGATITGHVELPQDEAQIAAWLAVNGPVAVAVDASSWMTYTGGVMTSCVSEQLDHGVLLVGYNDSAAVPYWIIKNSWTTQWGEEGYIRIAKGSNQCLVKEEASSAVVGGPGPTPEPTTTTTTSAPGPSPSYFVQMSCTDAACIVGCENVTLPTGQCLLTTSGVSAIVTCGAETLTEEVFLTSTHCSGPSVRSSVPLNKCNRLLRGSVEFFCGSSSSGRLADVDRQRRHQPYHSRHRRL
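Purified cruzain at 1.5 nM, pre-incubated 15 min with compound at room temperature in 100 mM sodium acetate pH 5.5, 5 mM DTT, 0.00005% Triton X-100. Reaction started with 2 uM Z-FR-AMC; AMC fluorescence increase over 60 s gives rate.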
Lassa entry inh – Lassa virus entry inhibition. actives 1.2% (n = 300,000). Potency, µM (highest dose often 37.9 µM), inactives show top-dose activity change, negative = inhibition, actives largely listed as inhibitors. AID 540256. Lassa virus pseudotype entry inhibition, cell reporter; control for the full effect not named in the record; active means well fitted inhibition curve with a large enough effect; inconclusive means small, poorly fitted or top-dose-only effect, or effect the other way; inactive means flat fitted curve, though single readings scatter; tested in HEK293 cells; further: on the % scale 0 is the no-effect control and ±100 the full control effect; nearly all actives have a fitted effect of over 50% in size; luciferase read-out
RE007 growth inh – less growth of the S. pombe RE007 Vpr strain | Potency, µM (highest dose often 92.2 µM), for inactives: at the top dose activity change, negative = less growth | S. pombe RE007 Vpr strain, BacTiter-Glo ATP luminescence, 24 h; control for the full effect not named in the record | actives 0.21% (n = 360,000) | AID 651644; active = well fitted falling curve with a large enough effect; inconclusive = small, poorly fitted or top-dose-only effect; inactive = no such curve, though single readings can be large or run the other way;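 further: on the % scale 0 is the no-effect control and ±100 the full control effect; nearly all actives have a fitted effect of over 50% in size; the assay follows cell death caused by Vpr and the record does not say whether a fall means rescue or toxicity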
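Fission yeast RE007 carrying one integrated HIV-1 vpr copy, seeded at OD 0.01 in PMG+AL medium with 23 nL pinned compound. Grown 24 h at 30 degrees; viability read by BacTiter-Glo luminescence after 5 min.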
SARS PLP yeast – blocks SARS-CoV papain-like protease in a yeast assay; S. cerevisiae expressing SARS-CoV PLpro, growth rescue; control for the full effect not named in the record; actives 0.19% (n = 330,000); Potency, µM (series often up to 32.9 µM), for the others: top-dose activity, positive = growth rescue; active means well fitted rising curve with a large enough effect; inconclusive means small, poorly fitted or top-dose-only effect; inactive means no such curve, though single readings can be large or run the other way; further: 0% is about no effect; nearly all actives have a fitted effect of over 55% in size; growth read by luminescence after 48 h
StopGo reporter – lowers the luciferase signal of an FMDV 2A StopGo reporter; human cells with a luciferase reporter of 2A StopGo recoding; control for the full effect not named in the record; Potency, µM (top dose mostly 57.9 µM), without a hit: at the top dose signal change, negative = less light; actives 1.2% (n = 410,000); active = well fitted falling curve with a large enough effect; inconclusive = small, poorly fitted or top-dose-only effect; inactive = no such curve, though single readings can be large or run the other way; tested in HEK293T cells; further: on the % scale 0 is the no-effect control and ±100 the full control effect; nearly all actives have a fitted effect of over 45% in size; luciferase light after 4 h
Cruzain inh Det – cruzain (T. cruzi) inhibition with detergent | P25779 | purified cruzain, Z-FR-AMC fluorescence, 0.01% Triton | Potency, µM, without a hit: max response, negative = inhibition, most hits filed as inhibitors | AID 1478 | actives 0.43% (n = 200,000);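 further: plate controls were neutral wells for no effect and buffer without enzyme for full effect; nearly all actives have a fitted effect of over 40% in size; top concentration of the series not given in the record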
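Cysteine protease activity tested under reducing, mildly acidic conditions (100 mM sodium acetate pH 5.5, 5 mM DTT) plus 0.01% Triton X-100. Cruzain 1.5 nM; substrate Z-FR-AMC 2 uM; 15 min compound preincubation at room temperature.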
NS1 function inh – blocks influenza NS1 protein function; Potency, µM (top dose mostly 46.1 µM), inactives show at the highest dose activity, positive = more growth; S. cerevisiae slowed by influenza A NS1, growth recovery by OD600; actives 0.4% (n = 270,000); active means well fitted rising curve with a large enough effect; inconclusive means small, poorly fitted or top-dose-only effect; inactive means no such curve, though single readings can be large or run the other way; further: nearly all actives have a fitted effect of over 50% in size
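OD600 was taken as the measure of yeast growth restored by compound in an NS1-expressing S. cerevisiae strain. Cells had been washed out of glucose medium and diluted 1:100 into galactose -URA medium, pH 6.0.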
Active calls of the source: *; u = inconclusive; x = no result given; [ ] = dose if it differs, or a comment. Unless noted, the call rests on the fitted dose curve; in most records, active means well fitted curve in the direction sought with a large enough effect; inconclusive means small, poorly fitted or top-dose-only effect, or another doubt; inactive means no such curve, though single readings can be large; an effect the other way counts as inactive or inconclusive. Potency means the concentration at half of the fitted maximal effect.

Results follow in this order: MARV entry inh	Cruzain inh noDet	Lassa entry inh	RE007 growth inh	SARS PLP yeast	StopGo reporter	Cruzain inh Det	NS1 function inh
> CCOc1cc(/C=C2/C(=O)ON=C2C)ccc1OCc1ccc(F)cc1
→ u	u	-16.6%	15.2%	-4.2%	22.0%	-4.5%	-12.6%
> COc1ccc(C2c3c(oc4ccccc4c3=O)C(=O)N2CCCN2CCOCC2)cc1 (stereo not given)
→ 13.7%	x	-3.3%	13.2%[3.69 µM]	x	23.4%	x	10.9%
> CC(NC(=O)CCNC(=O)c1ccccc1Cl)c1ccc(-n2ccnc2)cc1 (stereo not given)
→ x	x	x	-1.5%	4.0%	-17.3%	x	15.9%
> Cn1c(N)c(C(=O)COC(=O)CCc2ccccc2)c(=O)n(C)c1=O
→ -4.0%[46.1 µM]	x	u	-12.0%	0.7%	6.2%	x	x
> CC(C)(C)OC(=O)N1CCC(C(=O)NNC(=O)c2ccc(Cl)cc2Cl)CC1
→ x	x	x	14.2%	1.5%	-11.6%	x	-2.5%
> CN(CCC#N)C(=O)c1ccc(CNS(=O)(=O)c2ccc(F)cc2)cc1
→ 13.7%	1.2%	-7.7%	3.8%	2.3%	-18.0%	6.9%	-2.4%
> COc1cc(C(=O)NNC(=O)CN2C(=O)NC3(CCCC3)C2=O)cc(OC)c1OC
→ 17.4%	x	-9.1%	13.5%	1.3%	-21.5%	x	x
> CCC(=O)N1CCc2cc(S(=O)(=O)CCC(=O)N3CCN(c4cccc(Cl)c4)CC3)ccc21
→ -21.8%[46.1 µM]	u	-16.7%[46.1 µM]	x	x	0.0%	-2.1%	x
> COc1ccc(C(F)(F)F)cc1NC(=O)c1sc2nc(-c3cccs3)ccc2c1N
→ 26.2%[46.1 µM]	-12.3%	6.3%[46.1 µM]	x	x	27.7%	-29.0%	x
> COc1ccc(S(=O)(=O)NC(C)C(=O)NCc2ccco2)cc1OC (stereo not given)
→ 1.9%[46.1 µM]	x	-3.1%[46.1 µM]	0.2%	5.2%	-6.5%	x	3.5%
> O=C(NCC1CCCO1)c1ccccc1OCc1ccc(F)cc1 (stereo not given)
→ -11.4%	x	-13.7%	6.3%	-6.2%	-11.9%	x	x
> CN(C)/C=N/C(=S)Nc1ccc(Br)cc1F
→ -27.4%	-15.5%	u	-10.2%	u	11.8%	-4.1%	-32.6%
> O=C(NCC1CCCO1)c1ccc2c(c1)C(=O)N(c1cccc([N+](=O)[O-])c1)C2=O (stereo not given)
→ 2.7%[46.1 µM]	x	-2.5%[46.1 µM]	-15.9%	0.2%	-5.4%	x	-14.9%
> CCOc1ccccc1NC(=O)C1CCN(S(=O)(=O)c2ccc(OC)c(OC)c2)CC1
→ -3.1%	u	-5.6%	4.4%	2.2%	x	-1.8%	-12.4%
> CCOc1ccccc1/C=N/NC(=O)c1cccc(S(=O)(=O)N(CC)CC)c1
→ 17.3%[46.1 µM]	x	5.0%[46.1 µM]	-2.6%	-0.4%	0.0%	x	x
> CCN(CC)C(=O)Cn1cc(S(=O)(=O)CC(=O)NCCc2ccccc2)c2ccccc21
→ -0.9%	x	1.0%	-6.9%	-1.2%	-7.2%	x	-3.3%
> CCCOC(=O)C1C2CCC(O2)C1C(=O)O (stereo not given)
→ -2.0%[46.1 µM]	x	-11.2%[46.1 µM]	9.6%	x	-4.3%	x	x
> COc1cc(/C=N/N=C(/C(=O)c2ccccc2)c2ccccc2)cc(OC)c1O
→ -16.7%	u	u	-13.5%	-37.7%	-21.6%	-10.8%	6.7%
> Cc1cc(C(=O)COc2ccccc2C#N)c(C)n1C1CC1
→ 6.2%[46.1 µM]	x	3.0%	-15.8%	-1.5%	11.4%	x	x
> Cc1cc2ccccn2c1C(=O)Nc1ccc(Cl)cc1
→ u	x	u	7.4%	-4.8%	12.8%	x	12.9%

Random excerpt: 3 entries already listed.
Results follow in this order: MARV entry inh	Cruzain inh noDet	Lassa entry inh	RE007 growth inh	SARS PLP yeast	StopGo reporter	Cruzain inh Det	NS1 function inh
> CN(CCC#N)C(=O)c1ccc(CNS(=O)(=O)c2ccc(F)cc2)cc1
→ 13.7%	1.2%	-7.7%	3.8%	2.3%	-18.0%	6.9%	-2.4%
> COc1ccc(C2c3c(oc4ccccc4c3=O)C(=O)N2CCCN2CCOCC2)cc1 (stereo not given)
→ 13.7%	x	-3.3%	13.2%[3.69 µM]	x	23.4%	x	10.9%
> Cc1cc2ccccn2c1C(=O)Nc1ccc(Cl)cc1
→ u	x	u	7.4%	-4.8%	12.8%	x	12.9%

Next section:
Results follow in this order: MARV entry inh	Cruzain inh noDet	Lassa entry inh	RE007 growth inh	SARS PLP yeast	StopGo reporter	Cruzain inh Det	NS1 function inh
> COc1ccccc1CN(C)C(=O)CNC(=O)c1cccc(Cl)c1
→ u	x	25.2%[46.1 µM]	4.0%	-1.8%	-26.1%	x	-7.8%
> COCCCNC(=O)c1ccc2c3c(onc13)-c1ccccc1C2=O
→ u	x	u	-26.2%	-8.4%	-103.7%	x	-0.3%
> CCCN1C(=O)c2[nH]nc(-c3ccccc3O)c2C1c1cccc(OCc2ccccc2)c1 (stereo not given)
→ u	u	x	x	x	-24.5%	-7.0%	x
> Cc1ccc(C(=O)O/N=C(\N)c2ccccc2)c(Cl)c1
→ u	x	u	u	-12.7%	-88.7%	x	-41.8%
> O=C(NNC(=O)c1cccs1)c1ccc(Cl)nc1
→ 17.8%	x	3.4%[46.1 µM]	-3.8%	1.0%	25.0%	x	x
> O=C(c1cc2ccccc2c(=O)o1)N1CCc2ccccc2C1
→ 20.6%	-1.0%	0.3%	6.5%	0.8%	24.0%	0.3%	-4.5%
> Cc1ccc(S(=O)(=O)NCCN2CCOCC2)cc1
→ -3.3%	-1.2%	6.4%	2.0%	-1.2%	-2.8%	6.4%	2.0%
> Cn1ccnc1SCC(=O)NC1CCCC1
→ 1.1%[46.1 µM]	x	17.3%	0.4%	0.9%	29.4%	x	9.2%
> Cc1ccc(SCCC(=O)OC(C)C(=O)Nc2ccccc2)cc1 (stereo not given)
→ 1.8%	x	-3.8%	-11.6%	-0.8%	11.7%	x	x
> O=C(O)c1ccc2c(c1)C(=O)N(c1ccc(Cl)cn1)C2=O
→ x	0.5%	x	16.3%	-2.2%	-5.2%	4.4%	2.7%
> O=C(NCc1cccnc1)c1nc(-c2ccccc2)n(-c2ccccc2)n1
→ 0.3%	x	-1.9%	1.2%	4.8%	11.4%	x	19.4%
> COc1cc(C)nc(Oc2ccc(/C=N/O)cc2)n1
→ u	4.2%	2.9%	13.6%	u	-0.7%	2.4%	-3.1%
> COC(=O)c1[nH]c2ccc(F)cc2c1NS(=O)(=O)c1ccc(F)c(C)c1
→ -17.9%	-18.5%	u	17.8%	12.9%	-9.9%	-0.7%	2.4%
> CCSC1(SCC)N=C(N)C2(C#N)C(c3ccc(OC)c(OC)c3OC)C12C#N (stereo not given)
→ u	24.0%	u	5.62µM*	0.5%	25.1µM*	-5.5%	-23.4%
> CC(C)C(=O)NNS(=O)(=O)c1ccccc1[N+](=O)[O-]
→ 7.8%	9.9%	5.0%	-2.3%	-3.7%	-5.4%	4.4%	8.8%
> COc1cc(CC(=O)OCC(=O)Nc2cc([N+](=O)[O-])ccc2F)cc(OC)c1OC
→ x	-11.4%	x	21.4%	0.8%	-22.2%	-3.5%	-5.9%
> Cc1ccc2c(C)c(C(=O)N3CCCCC3CO)oc2c1C (stereo not given)
→ x	x	x	-0.3%	-9.7%	-4.2%	x	-24.3%
> COc1ccc(NC(=O)C2CCN(S(=O)(=O)c3ccc4c(c3)CCCC(=O)N4)CC2)cc1Cl
→ x	1.5%	8.2%[46.1 µM]	x	x	-29.2%	-2.8%	x
> CN(C)C=NCCn1c(N2CCOCC2)nc2c1c(=O)n(C)c(=O)n2C
→ -3.5%	8.0%	15.6%	1.4%	-1.1%	-17.3%	4.5%	2.8%
> CCn1c(CSCc2ccc(C)cc2)nnc1SCC(=O)N1CCN(c2ccccc2)CC1
→ u	u	-15.8%	15.9%	9.8%	22.4µM*	-1.7%	-5.9%
> NC(=O)C1CCN(C(=O)c2ccc(-c3ccccc3)cc2)CC1
→ -2.7%	-0.9%	0.0%	1.7%	4.0%	28.8%	3.3%	7.1%
> CCCn1c(-c2cccnc2Cl)nc2cc(Cl)c(Cl)cc21
→ u	28.3%	0.5%	13.8%	-2.6%	u	-0.7%	-27.1%
> CC(CN1CCCCC1)OC(=O)CCc1ccccc1 (stereo not given)
→ 2.4%	x	-11.7%	-6.8%	1.4%	-6.1%	x	-2.6%
> CCN(CC)CCN(Cc1cc2ccc(C)cc2[nH]c1=O)C(=S)Nc1ccccc1C(=O)OC
→ 2µM*	x	u	-9.2%	0.6%	-17.8%	x	-2.2%
> Cc1cccc(N2CCN(C(=O)COc3cc(=O)n(C)c4ccccc34)CC2)c1C
→ -8.0%	u	u	-2.5%	-4.6%	-24.0%	-6.7%	-52.2%
> COc1ccc(CCNC(=O)C(C)OC(=O)c2nsc(Cl)c2Cl)cc1OC (stereo not given)
→ 11.2%[46.1 µM]	x	u	-12.7%	-0.2%	-5.5%	x	-6.2%
> COc1ccccc1CNC(=O)CCC(=O)N1Cc2cccc(OC)c2Oc2ncccc21
→ x	x	x	-4.9%	14.5%	1.1%	x	4.4%
> N/C(=N\OC(=O)Cc1ccc(-c2ccccc2)cc1)c1ccncc1
→ u	x	10.0%[46.1 µM]	-7.0%	-2.7%	-9.0%	x	x
> CCCS(=O)(=O)c1nc(S(=O)(=O)c2ccc(C)cc2)c(N(CC)CC)s1
→ -20.2%[46.1 µM]	-5.7%	2.0%[46.1 µM]	x	x	2.6%	-4.5%	x
> CCOc1ccccc1C(=O)OCC(=O)Nc1nnc(-c2ccccc2)o1
→ -11.7%	x	u	u	-3.0%	9.2%	x	x
> CCc1ncc(CN2CCCC(C(=O)Nc3ccc(-c4cscn4)cc3)C2)cn1 (stereo not given)
→ x	x	x	5.5%	25.7%	6.9%	x	1.1%

Compounds were not picked by outcome; overall some 4.6% were active at least once.
